hcDAF12 agonist: activates DAF-12 receptor from parasite H. contortus; activation, % at 6.8 µM; actives 1.4% (n = 370,000); HEK293 hcDAF-12 lit1-tk-luc reporter, luminescence; 0% DMSO, 100% Δ7-dafachronic acid;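 active = activation above the mean of all tested compounds plus 3 SD, cut at about 5.5% in these data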;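 also: 100% = response to 3 µM Δ7-dafachronic acid high control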
ssDAF-12 act: activators of S. stercoralis DAF-12 nuclear receptor; activation, % at 6.8 µM; HEK293 ssDAF-12/GRIP1 lit1-tk-luc reporter, luminescence; % of 3 µM dafachronic acid response; actives 1% (n = 370,000);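 active = activation above the mean over all tested compounds plus 3 SD, cut at about 0.9% in these data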;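 also: 0% = DMSO-only wells and 100% = 3 µM delta7-dafachronic acid wells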
DAX1 inh-1: DAX1 (NR0B1) inhibition, primary screen. actives 1.1% (n = 370,000). AID 652010. HEK293T StAR-luciferase reporter, SF-1/DAX-1 repression relief. inhibition, % at 6.8 µM;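 active = inhibition above the mean over all tested compounds plus 3 SD, cut at about 3.6% in these data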;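 also: 0% = DAX-1 cells with DMSO and 100% = cells lacking DAX-1 with DMSO; higher inhibition means more luminescence from relief of DAX-1 repression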
HGIII-sPLA2 inh: Inhibits HGIII-sPLA2 liposome hydrolysis, primary screen; Q9NZ20; QFRET BODIPY PC-A2 liposome hydrolysis, fluorescence; inhibition, % at 12.2 µM; actives 0.56% (n = 370,000);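 active = inhibition above mean plus 3 SD of compounds lying within the high and low control bounds, cut at about 19% in these data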;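 also: 0% = median of test compound wells and 100% = no enzyme DMSO wells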
Target sequence (Q9NZ20 whole entry, looked up): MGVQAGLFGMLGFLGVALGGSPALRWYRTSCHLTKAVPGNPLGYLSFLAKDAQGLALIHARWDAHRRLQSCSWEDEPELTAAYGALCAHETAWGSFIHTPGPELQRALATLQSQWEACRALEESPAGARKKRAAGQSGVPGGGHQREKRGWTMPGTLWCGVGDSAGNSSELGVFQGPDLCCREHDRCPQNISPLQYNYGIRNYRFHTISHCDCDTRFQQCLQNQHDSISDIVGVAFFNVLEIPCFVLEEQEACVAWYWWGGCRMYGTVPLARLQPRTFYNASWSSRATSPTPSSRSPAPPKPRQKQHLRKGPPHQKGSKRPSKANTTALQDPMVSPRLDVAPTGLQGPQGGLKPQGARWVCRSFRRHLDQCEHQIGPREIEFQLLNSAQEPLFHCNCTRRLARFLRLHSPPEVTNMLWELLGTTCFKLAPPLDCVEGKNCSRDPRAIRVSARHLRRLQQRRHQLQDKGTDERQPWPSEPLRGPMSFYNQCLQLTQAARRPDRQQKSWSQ
GC-A act: GC-A (human) enzyme activation; actives 0.14% (n = 370,000); P16066; HEK293 GC-A cells, cGMP TR-FRET, EC30 ANP; 0% at EC30 ANP, 100% saturating ANP; activation, % at 10 µM; AID 1671463; in the data active = activation above about 40%
FXN GAA850 act: activators of GAA850 frataxin (FXN) promoter | AID 540364 | HEK293 lucGAA850 FXN promoter luciferase reporter, 24 h; percent of 10 µM SAHA response | activation, % at 6 µM | actives 0.56% (n = 360,000);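 active = activation above the average of all compounds screened plus 3 SD, cutoff fixed separately per campaign, cut at about 7.5% in these data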;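 also: 0% = DMSO wells and 100% = 10 µM SAHA wells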
hgDAF12 agonist: agonists of H. glycines DAF-12 nuclear receptor; HEK293 GAL4-hgDAF12 UAS-luciferase reporter, agonist luminescence; normalized to butyrate control; activation, % at 6.8 µM; actives 1.8% (n = 370,000);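 active = activation above a cutoff set at the mean of all screened compounds plus 3 SD, cut at about 10% in these data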;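 also: 0% = DMSO wells and 100% = sodium butyrate wells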
DAX1 inh-2: inhibits human nuclear receptor DAX1 | actives 0.99% (n = 340,000) | P51843 | inhibition, % at 6.75 µM | HEK293 Gal4-DAX1 luciferase reporter, luminescence | AID 504766;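 active = inhibition above the mean over all tested compounds plus 3 SD, cut at about 4.2% in these data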;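 also: 0% = DAX1-transfected cells with DMSO and 100% = empty-vector control cells with DMSO; inhibition shows as a rise in luminescence from relieved DAX1 repression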
Target sequence (P51843 207-470 limits assumed): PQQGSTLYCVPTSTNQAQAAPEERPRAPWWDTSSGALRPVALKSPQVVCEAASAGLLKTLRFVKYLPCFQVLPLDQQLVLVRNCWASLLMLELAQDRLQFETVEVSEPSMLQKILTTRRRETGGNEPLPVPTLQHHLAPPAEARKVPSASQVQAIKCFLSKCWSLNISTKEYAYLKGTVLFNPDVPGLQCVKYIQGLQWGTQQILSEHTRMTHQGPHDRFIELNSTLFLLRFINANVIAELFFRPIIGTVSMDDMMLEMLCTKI
GC-B act: GC-B (human) receptor activation; activation, % at 10 µM; P20594; HEK293-GC-B cells, CNP EC30, cGMP TR-FRET; 0% at EC30 CNP, 100% saturating CNP; actives 0.11% (n = 370,000);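 active = activation at 10 µM reaching about 35% in either raw or pattern-adjusted values, limit read from the data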
SMARCA2 act: increases SMARCA2 function in MMTV reporter cells; MG213 cells, MMTV-luciferase reporter, dexamethasone, overnight; activation, % at 9.1 µM; actives 1% (n = 370,000); AID 652017; in the data active = activation above about 7.8%;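 also: 0% = vehicle wells and 100% = reference activator wells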
Numbers without * were called inactive; . = not tested or not shown; & = joins results of further samples. The list is partial. The share of hits here may be higher or lower than overall.

Order of results: hcDAF12 agonist	ssDAF-12 act	DAX1 inh-1	HGIII-sPLA2 inh	GC-A act	FXN GAA850 act	hgDAF12 agonist	DAX1 inh-2	GC-B act	SMARCA2 act
O=C(NC1CCCCC1)N1CCN(c2ccccc2Cl)CC1
    0.4	-1.1	0.0	3	1	0.1	-2.3	0.6	-1	0
CCOC(=O)N1CCN(C(=O)C2CCN(S(=O)(=O)N3CCC4(CC3)OCCO4)CC2)CC1
    1.7	-1.2	-0.2	2	2	1.8	-0.8	0.7	1	-2
FC(F)(F)c1cc(-c2ccccc2)nc(N2CCOCC2)n1
    -0.2	-0.9	1.0	3	-2	0.2	-0.9	0.6	1	1
CC(NC(=O)COC(=O)c1ccccc1SCC(=O)N1CCCC1)c1ccccc1 (configuration not stated)
    -1.2	-0.5	0.3	-4	2	0.0	2.8	-1.0	-1	-1
O=C(NCc1ccncc1)C(=O)NCC1OCCN1S(=O)(=O)c1ccc(F)cc1 (configuration not stated)
    0.3	-1.1	1.3	2	1	0.3	-1.5	0.7	1	1
CC(C)OCCCn1c(=S)[nH]c2ccc(N3CCOCC3)cc2c1=O
    -3.0	-2.3	-2.0	9	10	-0.3	-4.7	-1.1	1	-6
CC1C(c2ccccc2)N(C)C(c2ccccc2)C(C)C1(O)C#Cc1ccccc1 (configuration not stated)
    -0.4	-1.0	-0.1	-3	0	2.2	0.5	-0.1	5	-2
CCOc1ccc(S(=O)(=O)Nc2ccc(C(=O)N3CCC3)cc2)cc1
    1.6	-0.6	-0.4	-4	0	1.1	-1.6	1.3	4	-1
CC(=O)Nc1ccc(S(=O)(=O)NCCN2CCOCC2)cc1
    -1.7	-0.8	0.8	8	-5	0.1	1.1	1.2	-2	-2
CCN=C1S/C(=C\c2ccc(N3CCOCC3)cc2C)C(=O)N1CC
    -0.2	-0.7	-0.5	3	-4	2.9	1.2	-0.3	-4	-2
CCC1CCCCN1C(=O)Cn1nc([N+](=O)[O-])c(Cl)c1C (configuration not stated)
    -0.1	-1.3	-0.4	3	-3	-0.2	-1.2	-1.5	-1	2
CC(/C=C/c1ccc2c(c1)OCO2)=N/NC(=O)COc1ccc(C)cc1
    0.5	-1.8	-0.1	-4	0	1.2	1.9	0.1	-4	0
CC(C)CC(=O)NC1(C(F)(F)F)C(=O)N(CC(C)C)C2=C1C(=O)CC(C)(C)C2 (configuration not stated)
    -0.5	-1.2	0.1	2	-1	2.0	2.8	0.9	0	0
Cc1cc(C)nc(NS(=O)(=O)c2ccc(N3C(=O)C4C5C=CC(C5)C4C3=O)cc2)n1 (configuration not stated)
    -1.9	-0.9	0.1	4	1	-1.2	-0.9	1.1	1	-1
Cc1cc2ncn(/N=C/c3ccc([N+](=O)[O-])s3)c2cc1C
    -1.8	-1.0	-1.6	-2	-11	3.4	0.4	0.1	-6	-3
COc1ccc(OC)c(S(=O)(=O)NC(C)CCc2ccccc2)c1 (configuration not stated)
    -1.9	-1.9	0.1	-8	-8	-0.5	-1.2	-1.8	-3	-2
CC(=O)NCCOc1nc(N2CCCCC2)nc(N2CCCCC2)n1
    -0.3	-1.0	-0.6	-2	-3	-0.7	-4.3	-1.0	-1	-5
CC(/C=N/NC(=O)c1n[nH]c2c1CCC2)=C\c1ccccc1
    3.4	0.2	3.5	-3	-3	5.3	2.4	-0.1	-8	5
CCN(CC(=O)Nc1ccc2c(c1)OCO2)S(=O)(=O)c1ccccc1
    -1.4	-1.2	0.1	2	3	-0.5	1.7	-0.5	1	1
COc1ccc(/C=C2\N=C(SC)SC2=O)cc1OC
    0.3	-1.0	0.9	5	3	-1.2	-3.3	1.0	-11	0
COc1ccc(Cl)cc1NC(=O)C1CCCN(c2cc(C)nc3ncnn23)C1 (configuration not stated)
    -3.4	-0.8	-1.0	4	-7	2.2	-3.2	-1.6	-7	-5
Cc1cccc(N2CC(C(=O)NCc3ccco3)CC2=O)c1C (configuration not stated)
    0.2	-1.3	0.8	1	0	0.0	-1.5	0.2	-4	0
Cc1c(C2C(C#N)=C(N)N(c3cccc([N+](=O)[O-])c3)C3=C2C(=O)CCC3)cnn1C (configuration not stated)
    -2.2	-1.3	-0.6	4	-3	.	0.0	.	1	-4
CC/C(=C(\c1ccccc1)c1ccc(OCCN(C)C)cc1)c1ccccc1
    -0.1&-2.0	-1.2&-1.4	-0.5&-0.1	2&-14	-7&0	0.8&1.0	-1.6&4.2	-0.6&-0.6	-1&5	-3&-1
O=C(c1ccccn1)N1CC=C(c2ccccc2)CC1
    0.9	-1.2	0.8	-2	2	0.7	0.1	1.9	2	-1
CCN(C(=O)CSc1nnc(Cc2cccc3ccccc23)n1N)C1CCS(=O)(=O)C1 (configuration not stated)
    -0.1	-1.2	0.1	-5	-2	-0.2	0.8	-0.2	-3	-2
COc1ccc(/C(C)=N/NC(=O)c2ccncc2)cc1
    0.5	-1.1	0.4	0	-3	1.3	2.9	2.1	2	0
O=C(O)C(Cc1cc(Cl)ccc1Cl)Sc1nc2ccccc2[nH]1 (configuration not stated)
    1.4	-0.7	0.5	-5	0	-0.5	-2.6	-0.3	1	0
CCSc1ncccc1-c1nc2ccccc2[nH]1
    -1.6	-1.1	0.1	-3	4	1.4	2.2	-0.3	-3	0
CCN(CC)S(=O)(=O)c1cccc(C(=O)Nc2ccc(Cl)cn2)c1
    -2.2	-1.3	-1.5	1	6	5.1	0.8	-0.6	-7	0
Cc1cccc(C)c1NC(=O)CN1CCN(CCCC(c2ccc(F)cc2)c2ccc(F)cc2)CC1
    -2.2	-1.1	-0.2	-13	-4	-3.5	-2.2	-0.5	-7	1
CS(=O)(=O)Nc1nc2n(n1)C(c1ccccc1)CC(c1ccccc1)N2 (configuration not stated)
    0.8	-1.2	0.2	-1	-3	-0.8	0.4	2.8	-1	4
COC(=O)c1ccccc1NC(=S)NC(=O)COc1ccc(C)cc1
    0.3	-1.3	0.1	5	9	0.7	2.3	2.0	-6	0
NCCCC[C@H](N[C@@H](CCc1ccccc1)C(=O)O)C(=O)N1CCC[C@H]1C(=O)O
    -2.6&0.0	-2.0&-0.9	-0.1&0.1	4&0	0&4	-1.6&-0.7	4.6&1.3	2.1&-0.1	1&0	1&-2
Cc1ccc(N(Cc2ccccc2)C(=O)c2cc(S(=O)(=O)N3CCOCC3)ccc2Cl)cc1
    -3.1	-1.9	-2.4	-5	-8	0.1	-3.3	-2.3	-4	-2
CCOc1cc(C2C(C(=O)OC(C)C)=C(C)N=C3SCCC(=O)N32)ccc1OC(C)=O (configuration not stated)
    -1.4	-1.1	-0.1	-9	-9	1.5	1.8	0.4	-5	-1
Cc1ccc(-c2cc(C(=O)N3N=C(C(F)F)CC3(O)C(F)F)c3ccccc3n2)cc1C (configuration not stated)
    -0.1	0.3	1.2	-21	1	0.3	3.4	1.5	-10	-4
Cc1cc(C(=O)COC(=O)c2ccc(O)cc2)c(C)n1Cc1ccco1
    6.0*	0.2	4.2*	-40	-2	2.9	13*	1.4	4	2
COc1ccc(NC(=O)CN(C)C(=O)c2ccc(S(=O)(=O)Nc3ccccc3F)cc2)cc1
    -1.0	-0.8	-0.9	-10	-1	1.0	-2.0	1.0	0	4
C=CCOc1ccc(C2NC(=S)NC(C)=C2C(=O)c2ccccc2)cc1OC (configuration not stated)
    -0.5	-0.6	0.0	18	5	-1.3	-1.0	-0.9	0	-1
NCCOc1ccc(C2CCCCC2)cc1
    -5.6	-3.1	-1.1	17	-3	-2.3	-13	-0.4	-6	-8
CCN(CC)S(=O)(=O)c1cc(NS(=O)(=O)c2cccc(Cl)c2)ccc1C
    -1.6	-1.4	0.0	-29	-1	-0.8	-2.2	0.0	5	-2
COc1ccc(C(=O)OCC(=O)NC(C)(C)C)cc1[N+](=O)[O-]
    -0.9	-0.9	-0.7	7	1	0.0	-1.3	-0.8	6	-1
CCOc1ccc(Cl)cc1/C=N/O
    -1.4	-1.3	0.5	-1	1	4.4	-2.1	-0.5	4	-1
Cc1ccc(Cn2c(SCC(=O)NCC3CCCO3)nc3c(sc4ccccc43)c2=O)cc1 (configuration not stated)
    0.0	-2.0	1.3	2	5	-3.4	-3.9	-1.6	-2	-2

Structures listed above that bear a hit mark in hcDAF12 agonist.
| structure | hcDAF12 agonist | ssDAF-12 act | DAX1 inh-1 | HGIII-sPLA2 inh | GC-A act | DAX1 inh-2 | GC-B act | SMARCA2 act |
| --- | --- | --- | --- | --- | --- | --- | --- | --- |
| Cc1cc(C(=O)COC(=O)c2ccc(O)cc2)c(C)n1Cc1ccco1 | 6.0* | 0.2 | 4.2* | -40 | -2 | 1.4 | 4 | 2 |

The list goes on:
Order of results: hcDAF12 agonist	ssDAF-12 act	DAX1 inh-1	HGIII-sPLA2 inh	GC-A act	FXN GAA850 act	hgDAF12 agonist	DAX1 inh-2	GC-B act	SMARCA2 act
Cc1cccc(N/N=C(\C(N)=O)C2=NC(C)(C)Cc3ccccc32)c1
    -4.2	-2.3	-0.3	9	-3	-4.4	-7.4	-2.4	-3	-4
CCOc1cccc2sc(N(CCCN(C)C)C(=O)c3ccc(S(=O)(=O)N(CC)Cc4ccccc4)cc3)nc12
    1.1	-0.8	-1.6	-14	-3	-2.6	1.0	2.7	6	0
Cc1ccc(-c2csc3ncn(CC(=O)OC(C)C)c(=O)c23)cc1
    -1.5	-1.3	-0.6	1	1	-0.8	-2.7	-2.9	9	2
Cc1cc(=O)[nH]c(/N=C(\N)Nc2ccc(Oc3ccccc3)cc2)n1
    -0.2	-1.3	0.0	7	5	1.7	0.0	-1.6	-8	-2
COCCNC(=O)[C@H]1N2C(=O)c3ccccc3C2SC1(C)C (some centres not stated)
    -0.3	-0.9	0.2	-4	1	-0.4	2.3	0.7	1	-1
O=C1N(c2ccc3c(c2)OCCO3)C(c2ccccc2)C1(F)F (configuration not stated)
    -1.5	-1.4	-0.5	-3	-2	0.0	1.0	-0.2	-3	1
Cc1ccc(C)c(N2N=C(C(=O)NCCN3C(=O)S/C(=C\c4cccnc4)C3=O)CCC2=O)c1
    -1.5	-0.8	-0.1	8	-1	1.1	-0.6	1.1	2	-3
COc1cc(OC)c(OC)cc1CN(C)C(c1ccccc1)c1nnnn1-c1ccccc1C (configuration not stated)
    -2.5	-0.7	-0.5	-7	-20	-0.3	-1.0	0.7	-11	0
CC(C)(C)C1CCC2(CC1)C(C#N)=C(SCC(=O)Nc1ccccc1)NC(=O)C2C#N (configuration not stated)
    -0.1	-0.9	0.3	-15	1	0.9	-1.2	-1.3	6	-2
O=C(CCSCCc1ccncc1)NCCCN1CCOCC1
    1.0	-0.7	-0.2	7	4	-0.2	0.9	0.4	2	-1
O=C1Cc2cc(S(=O)(=O)N3CCN(c4ccc(C(=O)O)cc4)CC3)ccc2N1
    -1.2	-1.0	2.9	10	1	1.1	1.1	.	1	-6
O=C(O)COc1ccc(/C=N/Nc2nc(Nc3ccccc3)nc(N3CCCCC3)n2)cc1
    1.3	-1.6	-0.2	-5	3	0.5	-1.6	0.7	2	-1
O=C(Nc1ccncc1)c1ccc(-c2ccccc2)cc1
    -2.4	-2.5	-2.9	-9	2	-0.2	-3.1	-5.7	-3	-6

Screening data from PubChem.
